From PubChem BioAssay
2A StopGo: High Throughput Screening for Foot and Mouth Disease Virus Antivirals; human cells with a luciferase reporter of 2A StopGo recoding; control for the full effect not named in the record; Potency, µM (titrated, usually from 57.9 µM), without a hit: top-dose signal change, negative = less light; hit rate 1.2% among 410,000; AID 1159524, 2015; active = well fitted falling curve with a large enough effect; inconclusive = small, poorly fitted or top-dose-only effect; inactive = no such curve, though single readings can be large or run the other way; tested in HEK293T cells; note: % is set by controls: 0 for no effect and ±100 for the full control effect; nearly all actives have a fitted effect of over 45% in size; luciferase light after 4 h
LASV entry inh: qHTS for Inhibitors of binding or entry into cells for Lassa Virus; Lassa virus pseudotype entry inhibition, cell reporter; control for the full effect not named in the record; Potency, µM (series often up to 37.9 µM), without a hit: top-dose activity change, negative = inhibition, hits mostly inhibitors; hit rate 1.2% among 300,000; active means well fitted inhibition curve with a large enough effect; inconclusive means small, poorly fitted or top-dose-only effect, or effect the other way; inactive means flat fitted curve, though single readings scatter; tested in HEK293 cells; note: % is set by controls: 0 for no effect and ±100 for the full control effect; nearly all actives have a fitted effect of over 50% in size; luciferase read-out
RE007 growth inh: qHTS Assay for Inhibitors of the HIV-1 protein Vpr; hit rate 0.21% among 360,000; Potency, µM (top dose mostly 92.2 µM), without a hit: at the top dose activity change, negative = less growth; S. pombe RE007 Vpr strain, BacTiter-Glo ATP luminescence, 24 h; control for the full effect not named in the record; AID 651644, 2012; active = well fitted falling curve with a large enough effect; inconclusive = small, poorly fitted or top-dose-only effect; inactive = no such curve, though single readings can be large or run the other way;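 note: % is set by controls: 0 for no effect and ±100 for the full control effect; nearly all actives have a fitted effect of over 50% in size; the assay follows cell death caused by Vpr and the record does not say whether a fall means rescue or toxicity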
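Fission yeast strain RE007, carrying one chromosomally integrated HIV-1 vpr copy, was seeded at OD 0.01 in PMG+AL medium with 23 nL pinned compound. After 24 h at 30 °C and 99% humidity, viability was read by BacTiter-Glo luminescence.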
Marburg entry inh: qHTS for inhibitors of binding or entry into cells for Marburg Virus. hit rate 1.8% among 300,000. Marburg virus pseudotyped entry inhibition, cell reporter; control for the full effect not named in the record; about a third of the inactives were read at about 46 µM. Potency, µM (titrated, usually from 37.8 µM), for the others: at the highest dose activity change, negative = inhibition, actives largely listed as inhibitors; active = well fitted inhibition curve with a large enough effect; inconclusive = small, poorly fitted or top-dose-only effect, or effect the other way; inactive = flat fitted curve, though single readings scatter; tested in HEK293 cells; about a fifth of its hits are not listed in these tables; note: % is set by controls: 0 for no effect and ±100 for the full control effect; luciferase read-out
Cruzain inh Det: qHTS Assay for Promiscuous and Specific Inhibitors of Cruzain (with detergent); Cruzipain (Trypanosoma cruzi), P25779; purified cruzain, Z-FR-AMC fluorescence, 0.01% Triton; Potency, µM, without a hit: max response, negative = inhibition, actives largely listed as inhibitors; hit rate 0.43% among 200,000; AID 1478, 2009; active = well fitted curve in the direction sought with a large enough effect; inconclusive = small, poorly fitted or top-dose-only effect, or another doubt; inactive = no such curve, though single readings can be large; an effect the other way counts as inactive or inconclusive;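 note: plate controls were neutral wells for no effect and buffer without enzyme for full effect; nearly all actives have a fitted effect of over 40% in size; top concentration of the series not given in the record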
Target sequence (P25779 123-467 limits assumed): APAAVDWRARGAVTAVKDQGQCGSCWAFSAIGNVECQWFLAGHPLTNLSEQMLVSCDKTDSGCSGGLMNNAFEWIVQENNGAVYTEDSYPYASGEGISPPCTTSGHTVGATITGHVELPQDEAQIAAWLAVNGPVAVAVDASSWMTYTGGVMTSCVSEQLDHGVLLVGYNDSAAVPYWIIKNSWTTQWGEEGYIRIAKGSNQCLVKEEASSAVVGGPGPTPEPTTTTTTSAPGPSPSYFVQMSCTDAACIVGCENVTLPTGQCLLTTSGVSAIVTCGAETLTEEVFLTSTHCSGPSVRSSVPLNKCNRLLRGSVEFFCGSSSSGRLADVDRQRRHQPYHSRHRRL
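15 min RT preincubation of 1.5 nM cruzain with compound, then 2 uM Z-FR-AMC added; kinetic AMC fluorescence, 60 s delta. Triton X-100 0.01%, pH 5.5.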
NS1 inh: qHTS Assay for Inhibitors of Influenza NS1 Protein Function; S. cerevisiae slowed by influenza A NS1, growth recovery by OD600; Potency, µM (doses to about 46.1 µM), for the others: top-dose activity, positive = more growth; hit rate 0.4% among 270,000; note: actives are rising curves; nearly all actives have a fitted effect of over 50% in size
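Read-out: OD600 growth recovery of NS1-expressing budding yeast. Cells grown overnight at 30C in -URA glucose medium, washed, resuspended and diluted 1:100 in 2% galactose assay medium, pH 6.0. Same strain lacking NS1 served as positive control.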
SARS PLpro yeast: qHTS of Yeast-based Assay for SARS-CoV PLP; AID 485353, 2010; S. cerevisiae expressing SARS-CoV PLpro, growth rescue; control for the full effect not named in the record; Potency, µM (highest dose often 32.9 µM), without a hit: at the top dose activity, positive = growth rescue; hit rate 0.19% among 330,000; note: 0% is about no effect; nearly all actives have a fitted effect of over 55% in size; growth read by luminescence after 48 h
Cruzain noTriton: qHTS Assay for Promiscuous and Specific Inhibitors of Cruzain (without detergent); purified cruzain, Z-FR-AMC fluorescence, no detergent; Potency, µM, inactives show max response, negative = inhibition, most hits filed as inhibitors; Cruzipain (Trypanosoma cruzi), P25779; hit rate 2.3% among 200,000; active = well fitted curve in the direction sought with a large enough effect; inconclusive = small, poorly fitted or top-dose-only effect, or another doubt; inactive = no such curve, though single readings can be large; an effect the other way counts as inactive or inconclusive;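 note: plate controls were enzyme without inhibitor for no effect and buffer without enzyme for full effect; nearly all actives have a fitted effect of over 40% in size; top concentration of the series not given in the record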
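Purified cruzain at 1.5 nM, pre-incubated 15 min with compound at room temperature in 100 mM sodium acetate pH 5.5, 5 mM DTT, 0.00005% Triton X-100. Reaction started with 2 uM Z-FR-AMC; AMC fluorescence increase over 60 s gives rate.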
* marks the source's active call; other numbers are inactive results; ? = inconclusive; / = not tested or not shown; & = joins results of further samples; [ ] = remark or other dose. Unless noted, calls come from the whole dose curve; as a rule, active means well fitted rising curve with a large enough effect; inconclusive means small, poorly fitted or top-dose-only effect; inactive means no such curve, though single readings can be large or run the other way. Potency is the fitted concentration of half-maximal effect.

SMILES	2A StopGo	LASV entry inh	RE007 growth inh	Marburg entry inh	Cruzain inh Det	NS1 inh	SARS PLpro yeast	Cruzain noTriton
CCOc1ccc2oc(C(=O)N(CCOC)c3c(N)n(CC(C)C)c(=O)[nH]c3=O)c(C)c2c1	-8%	-6%	-18%	4%	/	/	2%	/
CCC(=O)Nc1ccc(N2CCN(C(=O)c3ccco3)CC2)c(Cl)c1	10%	5%	12%	5%	/	3%	-4%	/
O=C(NCCc1c[nH]c2ccccc12)C(=O)NCC1OCCN1S(=O)(=O)c1ccccc1 (configuration not stated)	-13%	?	5%	4%[46.1 µM]	/	/	1%	/
COc1ccc(C2CC3(CC(C)(C)NC(=S)N3)Oc3cc(O)cc(C)c32)cc1OC (configuration not stated)	-9%	-13%[46.1 µM]	-3%	?	/	/	1%	/
CN(C)C(=O)N1CCC(C(=O)NC2CCCCCCC2)CC1	/	?	1%	13%	0.7%	4%	2%	-3%
CCCCSc1nc2c(cnn2-c2ccc(C)c(C)c2)c(=O)[nH]1	-14%	/	9%	/	2.4%	0%	4%	20µM*
O=C(Nc1ccn(Cc2ccccc2)n1)c1n[nH]c([N+](=O)[O-])c1Cl	?	7.3µM*	-6%	?	-5.2%	-30%	8%	-1%
O=C(c1ccc2nc(Cc3ccccc3F)oc2c1)N1CC[C@H](O)C1	36%[activator]	10%[46.1 µM]	-4%	1%[46.1 µM]	/	-4%	11%	/
COc1ccc(C2C(C(C)=O)=C(O)C(=O)N2CCCn2ccnc2)cc1OC (configuration not stated)	-19%	?	-13%	23%	-0.7%	3%	-1%	-4%
O=C(CCNC(=O)C1CCN(S(=O)(=O)c2ccc(F)cc2)CC1)NCc1ccccc1	25%	25%[46.1 µM]	6%	-1%[46.1 µM]	/	11%	12%	/
O=C(O)CSc1nnc(CNc2ccc(Cl)cc2)n1Cc1ccccc1	0%	-4%	2%	9%[46.1 µM]	3.0%	8%	-7%	?
Cc1cc(C)cc(OCC(=O)Nc2ccc(Cl)c(-c3nc4ncccc4o3)c2)c1	-13%	-7%[46.1 µM]	/	-25%[46.1 µM]	-3.7%	/	/	-30%
CC(=O)c1cc2c(cc1NC(=O)CCn1cnnn1)OCO2	-11%	-6%	-6%	0%[46.1 µM]	/	0%	1%	/
CC(=O)Nc1ccc(/C(C)=N/NC(=O)c2ccccc2Cl)cc1	28%	-14%	-18%	?	-5.3%	-1%	2%	-3%
COc1ccc(NC(=O)CNC(=O)Cn2ccc3ccccc3c2=O)c(OC)c1	6%&-4%	?	5%	?	-0.4%	-3%	-3%	10%
O=C(CCC1CCCC1)NCc1cccs1	92%[activator]	4%	28%	18%	2.9%	-1%	-2%	2%
O=C1NC(=O)N(c2ccccc2)C1=O	-8%	-15%[46.1 µM]	3%	12%[46.1 µM]	/	7%	-3%	/
O=C1NCCN1c1ncc([N+](=O)[O-])s1	-10%	/	-3%[18.4 µM]	/	-4.8%	/	/	-12%
CCOc1ccccc1CN1CCN(Cc2cccc3c2OCO3)CC1CCO (configuration not stated)	-3%	/	-10%	/	/	1%	0%	/
Cc1ccc(CN(Cc2ccco2)C(=S)NCC(=O)NCc2cccnc2)cc1	-9%	3%	3%	-2%[46.1 µM]	/	/	1%	/
Nc1nc(NCc2ccco2)nc(N2CCOCC2)c1[N+](=O)[O-]	-12%	-2%	-9%	-14%	/	0%	-1%	/
C=C(C)C1CC=C(CN2CCC(O)CC2)CC1 (configuration not stated)	/	19%	-6%	-1%	7.8%	-6%	-1%	-9%
COCCNC(=O)/C(C#N)=C/c1ccc(O)cc1	46%[activator]	/	?	2%	/	-1%	-6%	/
COC(CNC(=O)c1ccc2c(c1)ncn2-c1cc(C)cc(C)c1)OC	-6%	-19%[46.1 µM]	8%	0%[46.1 µM]	/	-2%	-3%	/
COc1ccc(C(=O)c2cn(Cc3cccc(C)c3)c3cc4c(cc3c2=O)OCO4)cc1	-24%	18%[46.1 µM]	/	25%[46.1 µM]	-2.3%	/	/	-2%

(more compounds)
SMILES	2A StopGo	LASV entry inh	RE007 growth inh	Marburg entry inh	Cruzain inh Det	NS1 inh	SARS PLpro yeast	Cruzain noTriton
COC(=O)c1ccc(NC(=S)Nc2cccc(C)n2)cc1	22%	-15%[46.1 µM]	-17%	?	/	3%	-1%	/
O=C(CCN1C(=O)/C(=C/c2cccc(Br)c2)SC1=S)NNC(=O)c1cccnc1	20%	11%[14.3 µM]	5%	7%	-1.4%	4%	8%	?
ClC1=CCC2CN(CCN3CCCCC3)CC2C1 (configuration not stated)	-3%	15%	-12%	-5%[46.1 µM]	-0.4%	4%	2%	1%
CCOc1ccc(OCCOCCN2CCOCC2)cc1	-8%	4%	-4%	1%	2.7%	-8%	-2%	-2%
O=c1[nH]c(C2CCCN(S(=O)(=O)c3ccccc3Cl)C2)nc2c1nnn2Cc1ccc2c(c1)OCCO2 (configuration not stated)	-19%	/	4%	/	/	9%	4%	/
O=c1cc(CN2CCN(c3ccc(F)cc3)CC2)c2cc3c(cc2o1)CCCC3	-12%	-3%	-15%	?	6.8%	18%	-4%	?
Cc1cc(C)c(S(=O)(=O)Nc2ccc(N3CCOCC3)cc2)c(C)c1	15%	?	-10%	-9%	/	-7%	-1%	/
O=C(CC1C(=O)NCCN1Cc1ccccc1C(F)(F)F)NC1CCCCC1 (configuration not stated)	-2%	/	2%	/	/	10%	2%	/
COc1ccc(-c2nc(CSc3nncn4c3cc3occc34)c(C)o2)cc1	2%	-26%[46.1 µM]	/	/	2.9%	/	/	11%
COc1cccc2c(N/N=C/c3ccc(O)c(O)c3)cc(C)nc12	5%	-4%[46.1 µM]	7%	9%[46.1 µM]	/	21%	2%	/
COc1ccc(C(=O)CSc2nnc(-c3ccco3)o2)cc1	3%	2%[46.1 µM]	-45%	14%[46.1 µM]	/	-4%	7%	/
O=C(O)c1nn(-c2ccc(F)cc2)ccc1=O	-8%	-11%	-7%	-3%	/	13%	21%	/
O=C(NNS(=O)(=O)c1ccc(C(=O)NC2CCCC2)cc1)c1ccncc1	11%	10%	15%	15%[46.1 µM]	/	/	4%	/
O=c1[nH]n2c(-c3ccccc3)nc(O)c2c2ccccc12	42%[activator]	6%	3%	-18%[46.1 µM]	/	0%	0%	/
CCCCOc1ccc(Cn2c(=O)oc3ccc(C)cc32)cc1OC	-13%	-14%[46.1 µM]	/	-11%[46.1 µM]	-8.2%	/	/	8%
CC1CC(C)CN(C(=O)COC(=O)C2CCN(S(=O)(=O)c3c(Cl)cccc3Cl)CC2)C1 (configuration not stated)	-28%	-6%	-2%	2%	/	/	-2%	/
CCOC(=O)c1cc2c(=O)n3cc(C)ccc3nc2n(Cc2cccnc2)c1=N	/	/	/	3%	-0.1%	-8%	4%	7%
Cc1cccc(OCCCN2CCOCC2)c1C	11%	/	5%	/	/	-14%	0%	/
CN1C(=O)CS/C1=N\NC(=O)COc1cccc2cccnc12	2%	4%	4%	6%[46.1 µM]	/	3%	-1%	/
CCOC(=O)c1ccccc1-n1nnnc1C	-7%	9%	0%	-19%	/	0%	0%	/
N#CCCSc1ccccc1NC(=O)c1cc(=O)c2ccccc2o1	-23%	/	-2%	/	/	-16%	3%	/
Cc1ccc(NC(=O)COC(=O)C2CC2C)c(S(=O)(=O)N2CCCCC2)c1 (configuration not stated)	?	?	12%	5%	-1.1%	-11%	-2%	-7%
COc1ccc2nc(NC(=O)c3cccc(OCc4c(C)noc4C)c3)sc2c1	-26%	?	11%	?	-21%	3%	8%	-26%
Cc1ccc(N(CC(=O)Nc2cc(Cl)ccc2Oc2ccccc2)S(C)(=O)=O)c(C)c1	?	?	-5%	?	-1.1%	7%	1%	-21%
CS(=O)(=O)c1ccc(C(=O)OCC(=O)N(CCc2ccccc2)Cc2ccccc2)cc1	-13%	-12%	3%	3%[46.1 µM]	/	/	7%	/

(list continues)
SMILES	2A StopGo	LASV entry inh	RE007 growth inh	Marburg entry inh	Cruzain inh Det	NS1 inh	SARS PLpro yeast	Cruzain noTriton
Cc1cccnc1NC(=O)c1csnn1	-10%	/	0%	/	/	2%	-1%	/
Cc1ccc(NC(=O)CSC(C)C(=O)NCCc2ccccn2)cc1 (configuration not stated)	23%	6%	3%	10%	/	/	-1%	/
COc1ccc(CNC(=O)C2CCCN(C(=O)Nc3ccccc3OC)C2)cc1 (configuration not stated)	1%	-18%[46.1 µM]	-20%	13%[46.1 µM]	/	-7%	1%	/
COc1ccc(S(=O)(=O)NNc2nc(C)cc(C)n2)cc1[N+](=O)[O-]	13%	13%[46.1 µM]	-3%	1%[46.1 µM]	/	14%	-2%	/
COCCNC(=O)/C(C#N)=C/c1c(N2CCN(C)CC2)nc2ccccn2c1=O	-1%	/	1%	/	/	1%	2%	/
Cc1ccc(Cl)cc1NC(=O)C(=O)N/N=C/c1ccc2c(c1)OCO2	14%	/	-1%	/	/	1%	-2%	/
CCOC(=O)C1=C(C)N=c2s/c(=C/c3cccc([N+](=O)[O-])c3O)c(=O)n2C1c1cc(OC)c(OC)c(OC)c1 (configuration not stated)	?	4%[46.1 µM]	-11%	-34%[46.1 µM]	/	2%	0%	/
O=C(CN1CCC(C(=O)c2ccc(F)cc2)CC1)Nc1ccccc1	?	-21%[14.3 µM]	-6%	7%	-5.9%	0%	6%	5%
O=S(=O)(c1cccs1)N1CCc2ccccc21	-6%	5%	-5%	-12%	1.9%	-10%	8%	-13%
O=c1[nH]c(CSc2nc(-c3ccc(F)cc3)cs2)nc2ccccc12	-28%	-7%	7%	21%	0.0%	12%	-4%	-22%
COc1cc2c(cc1NC(=O)c1cccnc1)CCCC2	40%[activator]	13%	-2%	18%	2.3%	-7%	8%	-1%
CC(C)(C)c1nc(SCC(=O)N2CCCC2)c2ccccc2n1	-22%	-4%	0%	-1%[46.1 µM]	/	4%	1%	/
COc1ccc(OCC(=O)Nc2nnc(S(=O)(=O)N3CCCCCC3)s2)cc1	-6%&-15%	-1%[46.1 µM]	-6%	/	-2.3%	8%	-4%	8%
CCOC(=O)C1Sc2[nH]c(=O)sc2C(c2ccc(Cl)cc2)C1C(=O)OCC (configuration not stated)	-29%	-17%	-18%	-20%	-13%	-5%	-11%	-2%
